CSC inhib: cancer stem cell inhibition; cancer stem cell-like cells viability, luminescence; inhibition, % at 7.5 µM; 300,000 tested, 1.1% active; AID 2717;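 active = mean at 75% or more and at least half the replicates too; inconclusive = mean and replicates disagree; tested in HMLE shEcad cells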;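 note: 0% = median of negative and 100% = median of positive control wells; the first replicate is given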
MT1-MMP act inh: inhibitors of human MT1-MMP activation; P50281; HT1080 RFP-PRO-GFP cells, GFP/RFP ratio fluorescence, overnight; percent of plate control window, DMSO zero; GFP/RFP ratio change, % at 20 µM; 360,000 tested, 0.061% active; AID 651647;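 active = GFP/RFP ratio change of at least 30% with cell ATP level not reduced by more than half and red fluorescence within 50% of control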; note: strong numbers were not always called active
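Material: RFP-PRO-GFP reporter HT1080 cells. Dosing: single-point 20 µM compound, 1% DMSO. Controls: DMSO and RFP-L50D-GFP cell wells. Timing: cells overnight before dosing, compound overnight, 37 °C, 5% CO2. Measure: GFP/RFP fluorescence ratio.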
HIV Env fusion: HIV envelope-mediated fusion inhibition. HeLa-JRFL Env/CEM21 cell fusion, luciferase. inhibition, % at 12.3 µM. 360,000 tested, 1.1% active. AID 651610;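 active = mean replicate inhibition score of at least 50 and every replicate individually at or above 50; inconclusive = only one of the two criteria met; inactive = mean below 50 and not all replicates reaching 50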;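 note: 0% = plate neutral controls and 100% = maraviroc near 300 nM; one replicate is shown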
PABP polyA inh: blocks human PABP binding to poly(A) RNA; P11940; inhibition, % at 35 µM; 290,000 tested, 1% active; fluorescence polarization;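 active = 50% or more with normal probe brightness, or confirmed in later tests; inconclusive = above 50% with abnormal brightness, or retests that disagree; inactive = below 50% or failed in later tests; about a fifth of its hits are not listed in these tables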;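 note: calls also rest on retests at 20 µM and on dose response follow-up; controls were probe without protein and protein plus probe with vehicle; some compounds called inactive have numbers as strong as hits; many hits fall short of the cut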
Rce1 inh: inhibitors of yeast Ras-converting enzyme | calls only | Q03530 | 290,000 tested, 0.27% active | AID 2563 | yeast membranes, quenched prenylated peptide cleavage fluorescence;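 active = fall in fluorescence gain of 50% or more versus controls, with final raw signal at or below 3038400; inconclusive = same 50% fall but final raw signal above 3038400; inactive = fall in fluorescence gain under 50%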;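 note: plate controls were neutral control wells for no effect and wells lacking membranes for full effect; tested at 10 µM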
Target sequence (Q03530 whole entry, looked up): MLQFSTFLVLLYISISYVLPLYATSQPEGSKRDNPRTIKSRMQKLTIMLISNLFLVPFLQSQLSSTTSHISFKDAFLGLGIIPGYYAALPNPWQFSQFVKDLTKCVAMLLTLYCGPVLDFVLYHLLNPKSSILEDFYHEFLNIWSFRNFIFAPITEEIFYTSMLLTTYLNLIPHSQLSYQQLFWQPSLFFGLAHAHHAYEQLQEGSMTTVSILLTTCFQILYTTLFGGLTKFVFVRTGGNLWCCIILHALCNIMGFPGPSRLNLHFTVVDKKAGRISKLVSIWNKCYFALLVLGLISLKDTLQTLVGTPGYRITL
Yeast UUG start: modulators of start codon recognition fidelity in yeast; 350,000 tested, 0.13% active; S. cerevisiae UUG-firefly luciferase reporter, luminescence/redox ratio; activity score, % at 18.7 µM;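 active = replicate mean at a twofold rise or more, about +100% in these data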;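 note: firefly luciferase made from a UUG start codon reports start codon fidelity; reporter light over untreated wells divided by growth signal over untreated wells; some hits fall short of that in this replicate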
eIF4H FP inh: inhibitors of RNA binding by human eIF4H; Q15056; eIF4H fluorescence polarization binding assay; inhibition, % at 35 µM; 290,000 tested, 0.94% active; AID 2012;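 active = 50% or more with normal probe brightness, or confirmed in later tests; inconclusive = above 50% with abnormal brightness, or retests that disagree; inactive = below 50% or failed in later tests; about a fifth of its hits are not listed in these tables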;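 note: calls also rest on retests at 20 µM and on dose response follow-up; 0% = protein and probe with vehicle and 100% = probe without protein; strong numbers were not always called active; many hits fall short of the cut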
MT1-MMP act inh RFP: second read-out of MT1-MMP act inh, no call of its own (marks repeat the call); RFP signal change, %; measured here: RFP expression control read;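 0 = vehicle wells; hits needed this value within 50% of zero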
The depositor's hits bear a star; i = inactive; ? = inconclusive; nt = not tested or not shown; + = active, no number; & = joins results of further samples. No enrichment for hits. About 2.9% of those tested had a hit in this group.

SMILES	CSC inhib	MT1-MMP act inh	MT1-MMP act inh RFP	HIV Env fusion	PABP polyA inh	Rce1 inh	Yeast UUG start	eIF4H FP inh
N#Cc1c(/N=C/c2ccccc2)oc(-c2ccccc2)c1-c1ccccc1	nt	-4.7	-2.7	nt	-7.5	i	-5.0	-3.6
COCCNC(=O)CN1C(=O)CSc2cc(S(=O)(=O)N3CCCCCC3)ccc21	9.1	-4.4	0.6	-10.1	nt	i	-2.3	nt
CC(C)(C)C(=O)NC1CCN(S(=O)(=O)c2cccc(C(F)(F)F)c2)CC1	2.6	-5.8	-7.5	13.3	-0.2	i	-22.6	6.6
Cc1cc2c(cc1S(=O)(=O)N(C)Cc1ccccc1)OCC(=O)N2	-10.5	-7.4	-7.1	-11.6	1.5	i	-5.8	-7.2
Cn1cnc2c1c(=O)n(Cc1ccc(Cl)cc1Cl)c(=O)n2C	-7.1	2.4	1.1	18.5	-8.3	i	-13.2	-6.6
CCOCc1nnc(NC(=O)CSCc2ccccc2)s1	-12.2	2.2	6.4	-35.2	10.5	i	-13.6	10.8
NC(CO)c1csc(NC(=O)Nc2ccccc2Cc2ccccc2)n1 (stereo unspecified)	nt	1.7	2.7	1.7	nt	nt	-19.1	nt
N#Cc1c(NC(=O)CCCl)sc2c1CCCCC2	3.1	-0.4	5.8	-11.0	-11.0	i	nt	-8.5
CN(C)[C@@H](CO)c1nnc([C@H](Cc2ccc(O)cc2)NC(=O)C2CCNCC2)o1	6.6	1.7	5.1	-24.4	0.3	i	-4.6	-16.9
CC(C)CN1CCC(C(=O)NCC2CCCO2)CC1 (stereo unspecified)	-15.2	-1.6	4.6	nt	-8.4	i	-19.3	3.5
Cc1cc(-n2c(C)cc(C(=O)CCl)c2C)no1	-6.1	-7.2	3.4	-84.0	4.0	i	nt	-20.1
O=c1ccccn1Cc1c(Cl)cccc1Cl	-12.0	16.7	0.9	nt	1.3	i	-15.7	-4.2
O=C(CCS(=O)(=O)CCN1CCOCC1)NCNC(=O)CCS(=O)(=O)CCN1CCOCC1	-9.3	-0.1	4.4	15.8	0.4	i	-34.0	-4.4
CCCC1CCc2c(sc(NC(=O)c3cccs3)c2C(N)=O)C1 (stereo unspecified)	-6.9	5.6	-2.6	nt	6.3	i	-11.0	3.5
N=C(N)n1c(N)nc2ccccc2c1=O	-4.1	4.2	0.8	34.6	21.2	i	-20.2	10.4
Cc1nn(CC(=O)Nc2cccnc2)c(=O)c2ccccc12	0.0	-0.7	2.7	0.7	1.7	nt	nt	-2.8
COc1ccccc1-c1nc(-c2ccncc2)no1	-8.2	0.0	2.2	-388.9	7.1	i	-30.8	2.4
CCC(C)Sc1cc(-c2nc3ccc(C)cn3c2NCc2ccccc2)ccc1OC (stereo unspecified)	-29.0	-2.7&17.3	-35.5&-19.3	24.2	nt	i	-13.6	nt
O=C(NCc1ccco1)N1c2ccccc2Sc2ccccc21	-8.7	-0.8	3.4	nt	-6.8	i	-17.1	-0.7
COc1cc2c(cc1NC(=O)/C=C/c1ccc([N+](=O)[O-])cc1)oc1ccccc12	0.6	1.8	9.1	nt	-2.4	i	-13.3	-2.9
Cc1ccccc1C(=O)O/N=C(\N)c1ccccc1	-0.5	1.5	0.6	-21.9	0.4	i	-53.9	-13.4
COc1ccc(C)cc1S(=O)(=O)NC1CCCC1	0.8	2.3	1.8	nt	-5.4	i	-12.2	-15.9
Cc1cc2ccccn2c1C(=O)c1ccc([N+](=O)[O-])o1	?	-9.1	-8.7	-14.3	3.2	i	-28.3	0.7
Cc1cc(C)n2c(nc3ccccc32)c1C(=O)NCc1ccccc1	-12.9	-7.0	-4.3	2.7	6.6	+	-6.6	5.6
Cc1nc2ccccc2nc1N/N=C/c1ccc(O)cc1	5.0	8.5	8.3	-28.1	44.1	i	nt	38.8
Cc1cccc(NC(=O)CCOc2ccccc2)c1	13.1	-0.4	3.9	nt	2.3	i	nt	3.6
COc1ccc(NC(=O)c2cc(-c3ccc(F)cc3OC)n[nH]2)c(C)c1	nt	1.3	0.7	15.3	nt	nt	-1.8	nt
Cn1cnc2c1c(=O)[nH]c(=O)n2C	-3.9	nt	nt	nt	0.1	i	nt	-2.9
Fc1cccc(Cl)c1CN1CCN(c2nc3ccccc3s2)CC1	6.5	5.3	-9.5	-54.7	3.3	i	-14.5	-3.3
O=C(CCN1CCOCC1)Nc1ccc(F)cc1	-7.9	1.8	2.0	9.2	1.7	nt	-4.6	2.0
Cc1cc2cc(C#N)c(N3CCOCC3)nc2cc1Cl	2.2	-3.1	0.1	-62.9	4.3	i	-9.2	1.9
CCc1ccccc1OCC(=O)Nc1cccc(S(=O)(=O)N2CCCC2)c1	nt	2.8	-5.3	2.0	nt	nt	-14.7	nt
N#CC1(NC(=O)CN2C(=O)NC(Cc3c[nH]c4ccccc34)C2=O)CCCCC1 (stereo unspecified)	-16.4	0.9	-0.2	0.3	nt	nt	-0.8	nt
CC(OC(=O)c1cccs1)C(=O)NC1CCCCC1C (stereo unspecified)	95.8*	2.8	-6.1	nt	nt	nt	3.7	nt
CC(C)COP(=O)(OCC(C)C)C(Nc1ccccc1)c1ccccc1 (stereo unspecified)	-0.6	-13.7	-8.4	46.1	-3.4	i	2.0	-0.8
O=C(CCC1CCCC1)NNC(=O)c1cc2ccccc2cc1O	27.9	5.8	8.9	16.4	12.5	i	nt	37.2
Cc1ccc(S(=O)(=O)NCCC(=O)OCC(=O)N(Cc2ccccc2)C(C)(C)C)cc1	nt	1.1	-1.3	-5.4	nt	i	nt	nt
COc1cc(CCN2C(=O)c3cccc4cccc(c34)C2=O)c(S(=O)(=O)N2CCC(C)CC2)cc1OC	-39.7	-3.3	-6.6	17.7	6.1	i	nt	-6.3
Cc1ccc2cc(C#N)c(SCC(=O)NNC(=O)Cc3ccccc3)nc2c1	nt	-3.9	-3.8	-21.8	0.2	nt	-12.9	0.6
O=C(Nc1ccc(Cl)c(Cl)c1)C1CCN(C(=O)c2ccco2)CC1	-4.6	3.5	-1.7	-0.9	nt	i	0.7	nt
COc1ccccc1Cc1c(-c2cccc(Br)c2)nc2ccc(Br)cn12	nt	-1.5	4.3	7.8	nt	nt	-25.0	nt
CN(C)N1C(N)=C(C#N)C(c2cccnc2)C2=C1CC(C)(C)CC2=O (stereo unspecified)	6.0	-2.5	5.1	nt	7.2	i	-9.0	2.6
CCn1cc(CN2CCCC(C(=O)Nc3cccc(-n4cccn4)c3)C2)cn1 (stereo unspecified)	nt	0.8	1.4	-5.0	nt	nt	-11.6	nt
O=C(O)CCCNS(=O)(=O)c1ccc(Br)s1	9.7	3.0	-1.7	nt	-8.3	nt	-11.5	3.9
CC1(C(=O)NS(=O)(=O)C2CC2)CCN(C(=O)c2ccc(F)c(Cl)c2)C1 (stereo unspecified)	nt	2.8	3.2	6.6	nt	nt	-10.0	nt
COCCNC(=O)Cn1nc(C)c([N+](=O)[O-])c1C	6.2	-2.2	2.4	-3.7	-4.6	i	-14.2	-4.5
N/C(=N\OC(=O)c1ccccc1F)c1ccc([N+](=O)[O-])cc1	-11.2	-0.2	-0.1	-53.4	1.6	i	-23.8	-2.9
C=CCn1c(SCC(=O)c2c(N)n(C)c(=O)n(C)c2=O)nc2sc(CC)cc2c1=O	-6.2	2.3	1.9	nt	4.4	i	-3.4	-11.0
Cc1cc(-c2ccc(Cl)cc2)c(C#N)c(N)n1	-12.5	-1.1	3.8	nt	8.1	nt	-12.0	2.1
CCN1CCN(c2ncnc3c2c(-c2ccccc2)cn3-c2ccc(F)cc2)CC1	-7.0	-7.4	-5.6	0.4	-3.7	i	nt	9.6
CC(=O)c1c(C)[nH]c(C(=O)COC(=O)COc2ccccc2F)c1C	-19.2	0.5	9.2	nt	nt	nt	-5.8	nt
Nc1ccc(NC(=O)c2cccs2)cc1	-1.4	2.3	3.2	-4.6	2.3	i	nt	-3.2
Cc1cc(C)c(C(=O)Nc2ccc(S(=O)(=O)Nc3ccccn3)cc2)c(C)c1	2.6	-0.5	-1.2	-2.8	13.1	nt	-20.8	-6.2
CSCC[C@H](NC(=O)N1CCn2c1nc1ccccc12)C(=O)N[C@@H](C(=O)O)c1ccccc1	4.7	0.4	6.4	nt	8.0	i	-8.9	2.6
O=C(NN1C(=O)C2C3c4ccccc4C(c4ccccc43)C2C1=O)C1CC1 (stereo unspecified)	4.2	0.2	1.4	-8.3	-14.1	i	nt	-6.6
O=C(/C=C/c1ccc([N+](=O)[O-])o1)NNC(=O)c1ccc(F)cc1	nt	-22.1	-27.6	-80.0	8.2	i	1.9	17.3
N/C(=N\OC(=O)CSc1ccccc1)c1cccc([N+](=O)[O-])c1	7.4	-3.0	-4.0	3.7	-13.2	i	nt	-2.1
CC1(c2ccccc2)CC(C)(C)n2c(O)c(C3=NC(=S)NC3=O)c3cccc1c32 (stereo unspecified)	19.9	0.3	-11.9	12.3	6.1	i	-24.8	21.3
Cc1c(C)n(CC(O)CN2CCCCCC2)c2ccccc12 (stereo unspecified)	22.4	1.3	-0.4	nt	3.9	i	1.6	-3.7
COc1cc(NC(=O)CCc2nc(-c3cccs3)no2)cc(OC)c1OC	-1.6	4.4	-1.0	13.9	10.4	i	nt	-8.2
(listing goes on)
SMILES	CSC inhib	MT1-MMP act inh	MT1-MMP act inh RFP	HIV Env fusion	PABP polyA inh	Rce1 inh	Yeast UUG start	eIF4H FP inh
Nc1cc(=O)[nH]c(SC/C=C/c2ccccc2)n1	6.1	1.9	-0.4	nt	-5.1	i	nt	2.6
O=C(COc1ccc2ccccc2c1)Nc1cccc2c1C(=O)NC2=O	9.1	nt	nt	nt	-1.2	i	nt	-2.0
COCc1[nH]nc2c1C(c1ccsc1)C(C#N)=C(N)O2 (stereo unspecified)	-3.8	0.9	1.8	-12.3	14.4	i	nt	-2.5
O=C(c1cccc([N+](=O)[O-])c1)c1ccc2[nH]c(=O)[nH]c2c1	-12.6	4.6	4.1	6.6	-9.4	nt	-14.9	7.2
Oc1ccc(Br)cc1CNn1cnnc1	-3.0	3.4	4.8	nt	-0.8	i	2.0	5.8
CCN(c1ccccc1)S(=O)(=O)c1ccc(Cl)c(C(=O)OCC(=O)NC(=O)C(C)C)c1	-7.8	-2.0	0.4	-2.5	8.9	i	nt	4.3
COc1ccc([C@H]2/C=C\CN(S(=O)(=O)/C=C/c3ccccc3)[C@@H](C)C(=O)N2Cc2ccc(F)cc2)cc1	-6.5	-6.1	-8.6	17.1	nt	i	1.6	nt
O=C(Nc1sc2c(c1C(=O)O)CCCC2)c1cccc(Cl)c1	16.7	-2.6	-3.1	-12.6	2.5	i	-10.9	-5.9
Cc1cc(S(=O)(=O)N2CCOCC2)ccc1OCC(=O)Nc1ccc(F)cc1	-0.1	1.4	1.5	-18.5	3.9	i	-18.2	8.4
Cn1cc(CN2CCCC(CO)(Cc3cccc(Cl)c3)C2)cn1 (stereo unspecified)	10.3	0.6	3.0	9.7	-3.8	i	-13.2	0.5
COc1ccccc1OCC(=O)Nc1ccc(S(=O)(=O)N(C)c2ccccc2)cc1	-1.7	3.1	-2.5	4.3	0.2	i	-5.2	-1.4
CC(=O)c1ccc(NC(=O)CN2C(=O)COc3ccc(Cl)cc32)cc1	-10.7	2.5	-0.3	-1.7	-6.7	i	-7.5	-1.7
S=C(NC1CCCCC1)N(CCc1nc2ccccc2[nH]1)C1CCCC1	2.3	7.7	1.8	-62.9	-7.6	i	-14.8	-3.2

High-throughput results as filed in PubChem.
